KSHV LANA nucl: LANA-nucleosome interaction inhibition; FITC-LANA1-23 / chicken nucleosome fluorescence polarization; active compounds read low; z-score (no concentration beside the values); 51,000 compounds, 0.3% hits;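 active means both repeat wells score below -2 in polarization z-score versus plate sample wells, excluding overly bright wells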;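 further: 100 nL library stock added to about 30 µL; numbers are from one replicate; some results filed as inactive read as strong as hits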
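Assay system: FITC-LANA peptide and chicken nucleosomes; input: 240 nM purified chicken nucleosomes (480 nM peptide binding sites), final; also added: 50 nM FITC-LANA1-23 probe; medium: TEN-BT buffer, pH 7.5; doses: pin-transferred compound, 100 nL; times: 10–45 min, room temperature; technique: fluorescence polarization; replication: duplicates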
BasE inh: BasE siderophore biosynthesis inhibition | inhibition, % (no concentration beside the values) | purified BasE, fluorescence polarization binding displacement | 84,000 compounds, 0.1% hits;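 active means both replicates above 25% with normal brightness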;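 further: 0% = negative plate control signal and 100% = positive plate control signal; stock transfer was 100 nL into about 30 µL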
Starred values were filed as active, the others as inactive; & = joins results of further samples. Some of the compounds tested; count on the stated rates, not on these rows.

How did Cc1nn(-c2ccccc2)c(C)c1/C=C/C(=O)OCc1nc2ccsc2c(=O)[nH]1 do in these assays?
BasE inh: 7.5

What do the screens show for `CC(C)(C)NC(=O)Cn1c(=O)oc2ccccc21`?
KSHV LANA nucl: 0.009; BasE inh: 2.8

What do the screens show for `COC(=O)c1ccc(-c2ccc(/C=C3/C(=N)N4N=C(COc5ccccc5)SC4=NC3=O)o2)cc1`?
KSHV LANA nucl: 0.65; BasE inh: 10

Results for Cc1ccccc1NC(=O)N1c2ccccc2CC1C (stereo unspecified) ?
KSHV LANA nucl: -0.35; BasE inh: 0.1

What do the screens show for `COc1ccc(OCCCC(=O)OCc2nc3ccccc3[nH]2)cc1`?
BasE inh: 0.5

How did N#CC1(N2CCNCC2)CCCCC1 do in these assays?
BasE inh: 0.5

How did NC(=O)C1Cc2ccccc2CN1Cc1c(O)ccc2ccccc12 (stereo unspecified) do in these assays?
BasE inh: 2.4

What do the screens show for `O=C(NCc1ccc(Cl)cc1)C1CCCN(S(=O)(=O)N2CCCCC2)C1` (stereo unspecified)?
KSHV LANA nucl: 0.62; BasE inh: 2.8

What do the screens show for `Cc1ccc(NC(=O)CSc2nc3c(cnn3-c3ccc(S(N)(=O)=O)cc3)c(=O)[nH]2)cc1`?
KSHV LANA nucl: -0.47; BasE inh: 1.2

Results for COc1ccc(S(=O)Cc2ccc(C(=O)NC3CC3)o2)cc1 (stereo unspecified) ?
KSHV LANA nucl: 0.11; BasE inh: -0.4

Results for CCOC(=O)c1cn2nc(Oc3ccc(N4CCN(C(C)=O)CC4)cc3)ccc2n1 ?
KSHV LANA nucl: 0.45; BasE inh: -1.2

What do the screens show for `Cc1cc(NC(=O)/C=C\c2ccc3c(c2)OCO3)nc2c1c(=O)oc1ccccc12`?
KSHV LANA nucl: -0.037; BasE inh: -1.8

How did Cc1ccc(-n2c(SC/C(O)=C(\C#N)c3nc4ccccc4[nH]3)nc3ccccc3c2=O)cc1 do in these assays?
BasE inh: -1.2

What do the screens show for `Cc1ccc2nc(-c3ccc(N(C)C)cc3)[nH]c2c1`?
KSHV LANA nucl: -0.53; BasE inh: 1.0

What do the screens show for `O=C(N/N=C1\CCCc2ccccc21)C(O)c1ccccc1` (stereo unspecified)?
KSHV LANA nucl: -1.2; BasE inh: 2.3

What do the screens show for `COc1cccc(N=Nc2c(O)[nH]c(=O)[nH]c2=O)c1`?
KSHV LANA nucl: -0.64; BasE inh: -0.5

Results for N#CCn1c(COC(=O)c2ccc(S(=O)(=O)N3CCCCCC3)cc2)nc2ccccc2c1=O ?
BasE inh: -2.6

Results for CCOC(=O)C1=C(CC)Nc2ccccc2N=C1NC(=O)Cn1cnc2ccccc2c1=O ?
BasE inh: -0.6

How did Nc1ccccc1NCCO do in these assays?
BasE inh: 0.1

Results for O=C(OC1CCCCC1=O)c1ccc(-c2nc3ccccc3s2)s1 (stereo unspecified) ?
BasE inh: 0.8

Eleven entries from above, ordered by length of the SMILES, high to low.
What do the screens show for `Cc1ccc(NC(=O)CSc2nc3c(cnn3-c3ccc(S(N)(=O)=O)cc3)c(=O)[nH]2)cc1`?
KSHV LANA nucl: -0.47; BasE inh: 1.2

How did Cc1ccc(-n2c(SC/C(O)=C(\C#N)c3nc4ccccc4[nH]3)nc3ccccc3c2=O)cc1 do in these assays?
BasE inh: -1.2

Results for N#CCn1c(COC(=O)c2ccc(S(=O)(=O)N3CCCCCC3)cc2)nc2ccccc2c1=O ?
BasE inh: -2.6

What do the screens show for `Cc1cc(NC(=O)/C=C\c2ccc3c(c2)OCO3)nc2c1c(=O)oc1ccccc12`?
KSHV LANA nucl: -0.037; BasE inh: -1.8

Results for CCOC(=O)C1=C(CC)Nc2ccccc2N=C1NC(=O)Cn1cnc2ccccc2c1=O ?
BasE inh: -0.6

Results for CCOC(=O)c1cn2nc(Oc3ccc(N4CCN(C(C)=O)CC4)cc3)ccc2n1 ?
KSHV LANA nucl: 0.45; BasE inh: -1.2

What do the screens show for `O=C(NCc1ccc(Cl)cc1)C1CCCN(S(=O)(=O)N2CCCCC2)C1` (stereo unspecified)?
KSHV LANA nucl: 0.62; BasE inh: 2.8

Results for O=C(OC1CCCCC1=O)c1ccc(-c2nc3ccccc3s2)s1 (stereo unspecified) ?
BasE inh: 0.8

What do the screens show for `COc1cccc(N=Nc2c(O)[nH]c(=O)[nH]c2=O)c1`?
KSHV LANA nucl: -0.64; BasE inh: -0.5

What do the screens show for `Cc1ccc2nc(-c3ccc(N(C)C)cc3)[nH]c2c1`?
KSHV LANA nucl: -0.53; BasE inh: 1.0

How did Nc1ccccc1NCCO do in these assays?
BasE inh: 0.1

New compounds follow:
How did Cc1cc(/C=C2\C(=O)NC(=S)N(c3ccccc3F)C2=O)c(C)n1-c1ccc(Cl)c(C(=O)O)c1 do in these assays?
BasE inh: 13

How did O=C(NC(=S)NCCN1CCOCC1)c1cccc(C(F)(F)F)c1 do in these assays?
BasE inh: 2.4

Results for CCCCC[C@H](O)/C=C/[C@@H]1[C@@H](C/C=C\CCCC(=O)O)[C@@H](O)C[C@@H]1O ?
KSHV LANA nucl: -0.17; BasE inh: -2.2

Results for O=C(Cc1nn[nH]n1)Nc1ccc(F)c(Cl)c1 ?
BasE inh: 0.1

How did N#C/C(=C\c1cccc(Oc2ccccc2)c1)C(N)=O do in these assays?
BasE inh: 0.6

What do the screens show for `O=S(=O)(NCCc1cn2ccccc2n1)c1ccccc1`?
KSHV LANA nucl: 0.71; BasE inh: -0.1

What do the screens show for `CC(C)[N+](C)(CCOC(=O)C1c2ccccc2Oc2ccccc21)C(C)C`?
KSHV LANA nucl: -0.067&-0.21&-0.92; BasE inh: -0.8&2.1

How did O=C(Cn1nnc2ccccc21)N1CCN(S(=O)(=O)Cc2ccccc2)CC1 do in these assays?
BasE inh: -0.9

Results for CCC(=O)N(CCN1CCOCC1)Cc1cc2cc3c(cc2nc1Cl)OCO3 ?
KSHV LANA nucl: -1.1; BasE inh: -1.0

What do the screens show for `CSc1ccc2nnc(-c3cccnc3)n2n1`?
KSHV LANA nucl: 0.24; BasE inh: 1.5

What do the screens show for `O=C(CC(SCc1ccco1)c1ccc(OC(F)F)cc1)c1ccco1` (stereo unspecified)?
BasE inh: -1.2

Results for COCCCn1cc(C(=O)c2cc(F)ccc2O)cc(C#N)c1=O ?
BasE inh: 3.2

How did C=CCc1cccc(C=Nc2cccn3cc(-c4ccccc4)nc23)c1O do in these assays?
BasE inh: 2.3

How did CC1=NN(c2ccccc2)C(=O)/C1=C\c1ccc(N)cc1 do in these assays?
KSHV LANA nucl: -0.75; BasE inh: -0.1

Results for COCCn1c(O)c(/C=N/Nc2nnc(C)c(=O)[nH]2)c(=O)[nH]c1=S ?
BasE inh: -1.4

What do the screens show for `N#Cc1cccc(OCC(=O)NC(=O)NCc2ccccc2)c1`?
BasE inh: -0.9

How did Nc1c(-c2ccc3c(c2)OCCO3)oc2ccccc2c1=O do in these assays?
BasE inh: -0.4

How did O=C1C(=Cc2cccn2-c2ccc(O)cc2)C(=O)c2ccccc21 do in these assays?
BasE inh: 4.5

What do the screens show for `Cc1cc2ncn(CCC(=O)NC(C)(C)C)c2cc1C`?
KSHV LANA nucl: -0.62; BasE inh: 0.9

How did COc1cc(/C=N/NC(=O)CSc2nc(C)cc(C)n2)ccc1O do in these assays?
KSHV LANA nucl: -0.89; BasE inh: 4.2

Results for CC(Sc1ccccc1)C(=O)NCc1ccco1 (stereo unspecified) ?
KSHV LANA nucl: 1.6; BasE inh: 1.5

How did COc1cccc(-c2nnc(SCCOc3ccccc3)n2C)c1 do in these assays?
BasE inh: 2.2

What do the screens show for `NNC(=O)c1ccc(CSc2ccc(C(F)(F)F)cn2)o1`?
BasE inh: 0.2

What do the screens show for `COCC(=O)Nc1ccc2c(c1)OCC(=O)N2Cc1ccc(C)cc1`?
KSHV LANA nucl: -0.47; BasE inh: 0.1

How did CN=C(c1ccc(C)cc1)n1c(=S)nc(-c2ccc(C)cc2)n(C)c1=S do in these assays?
BasE inh: -1.0

How did CC(C)C(=O)NS(=O)(=O)c1ccc(NS(C)(=O)=O)cc1 do in these assays?
KSHV LANA nucl: 0.73; BasE inh: 3.5

Results for O=C(O)c1cc2ccccc2nc1Cl ?
BasE inh: -0.8

What do the screens show for `C/C(=N\NC1=NCCN1)c1ccc(C)cc1`?
KSHV LANA nucl: 0.46; BasE inh: -1.1

Results for Cc1cc(NC(=O)c2cccc(S(=O)(=O)N3CCCCC3)c2)no1 ?
KSHV LANA nucl: -0.93; BasE inh: 1.6

Results for C=CCn1c(SCC(=O)NC(C)(C#N)C(C)C)nc2ccccc2c1=O (stereo unspecified) ?
BasE inh: -1.7

How did CN(c1ccccc1C(=O)NCc1ccco1)S(C)(=O)=O do in these assays?
KSHV LANA nucl: 0.25; BasE inh: -1.2

How did N#C/C(=C\c1ccc2c(c1)OCO2)C(=O)OCCN1CCCC1=O do in these assays?
BasE inh: -6.0

What do the screens show for `CC(NC(=O)Nc1ccccc1)C(c1cccs1)N1CCCC1` (stereo unspecified)?
BasE inh: 4.0

Results for CCOc1ccc2c(c1)[N+](C)(C)C(C)(C)C=C2C ?
BasE inh: 2.5

Results for Cc1ccc(C(=O)N/N=C/c2ccccc2)cc1 ?
KSHV LANA nucl: 0.11; BasE inh: -3.5

How did O=S(=O)(c1cccs1)N(c1ccccc1)C(F)F do in these assays?
BasE inh: -0.3

What do the screens show for `S=c1nc(CNc2ccccc2)[nH][nH]1`?
KSHV LANA nucl: -1.4; BasE inh: 0.2

How did CN(C)CCNC(=O)c1ccc(Br)s1 do in these assays?
KSHV LANA nucl: -0.59; BasE inh: 2.8

Results for Cc1noc(C)c1CC(=O)N1CCC2CCCCC2C1 (stereo unspecified) ?
BasE inh: 0.4

What do the screens show for `NC(=O)N/N=C/c1ccc(-c2ccc(SC(F)F)cc2)o1`?
BasE inh: 1.4

How did CC(NC(=O)c1ccc(S(=O)(=O)N2CCCCC2)cc1)C(c1ccccc1)N1CCOCC1 (stereo unspecified) do in these assays?
BasE inh: 0.5

How did Cc1ccc(-c2cn3nc(C(C)C)sc3n2)cc1C do in these assays?
KSHV LANA nucl: 1.7; BasE inh: -9.2

What do the screens show for `Nc1c(Br)cc(Br)cc1CNC1CCC(O)CC1` (stereo unspecified)?
KSHV LANA nucl: -0.32&-0.038&0.36; BasE inh: -0.8&2.4

What do the screens show for `O=S(=O)(NC1CCN(Cc2ccccc2)CC1)c1ccc(I)cc1`?
KSHV LANA nucl: 0.32

How did Cc1[nH]n(-c2ccccc2)c(=S)c1C=NC(C)Cc1ccccc1 (stereo unspecified) do in these assays?
BasE inh: 1.0

What do the screens show for `Cc1ccc(C)c(Nc2cn[nH]c(=O)c2Cl)c1`?
BasE inh: -0.8

What do the screens show for `CC(C)(C)c1ccc(C(=O)N2CCC(c3nc(-c4ccc(Cl)cc4)no3)CC2)cc1`?
BasE inh: 2.1

Results for CCOc1ccc(S(=O)(=O)N/N=C2/C=C(C)CC2)cc1 ?
BasE inh: -1.9

What do the screens show for `CC1Cc2ccccc2N1C(=O)c1ccc2c(c1)OCO2` (stereo unspecified)?
KSHV LANA nucl: -0.83; BasE inh: 1.4

What do the screens show for `O=C(CN1CCN(c2ccc(O)cc2)CC1)NC1CCCc2ccccc21` (stereo unspecified)?
BasE inh: -1.1

How did CCN1c2ccccc2NC2N=C(OC)C(c3ccccc3)C21 (stereo unspecified) do in these assays?
BasE inh: -2.0

How did O=C(CCN1CCCCC1)N/N=C/c1ccccc1OC(F)F do in these assays?
BasE inh: 1.8

What do the screens show for `COc1cc2c(cc1OC)CN(c1ccc3ccccc3n1)CC2`?
BasE inh: 0.2

What do the screens show for `O=c1c2ccccc2ncn1CN1CCN(Cc2ccccc2)CC1`?
BasE inh: -0.3

What do the screens show for `CCOC(=O)CSc1nc(NC#N)nc(N(CC)CC)n1`?
BasE inh: 1.4

What do the screens show for `CCOC(=O)c1c(C)nn(-c2ncccc2NC(=O)NC(C)C)c1C`?
KSHV LANA nucl: -1.2; BasE inh: 1.9

How did CCOC(=O)C1=C(O)/C(=C/c2ccc(C)o2)SC1=NC(=O)c1ccccc1 do in these assays?
KSHV LANA nucl: 0.36; BasE inh: -4.3

What do the screens show for `CCCCCc1ccc(-c2ccc(C#N)cc2)nc1`?
KSHV LANA nucl: 0.25; BasE inh: 1.0

Results for CCCCNC(=O)c1cn(CC(C)C)c(=O)c2cc(OC)c(OC)cc12 ?
KSHV LANA nucl: 0.14; BasE inh: -1.8

How did CC(C)c1n[nH]c(=S)n1N do in these assays?
BasE inh: 0.8

Results for Cc1ccn2cc(C(=O)OCCOc3ccccc3Cl)nc2c1 ?
BasE inh: 0.0

What do the screens show for `COc1ccc(C2(C(=O)NCc3nnc(SC)n3C(C)C)CC2)cc1`?
KSHV LANA nucl: -0.71; BasE inh: 0.9

Results for Cc1cc(=O)[nH]c(SC(C(=O)O)c2ccccc2)n1 (stereo unspecified) ?
BasE inh: -0.4

How did Cc1cc(/C=C/C(=O)N2CCCC2c2cccs2)c(C)n1Cc1ccco1 (stereo unspecified) do in these assays?
BasE inh: 0.4

How did C#CCSc1nc(=O)n2ccccc2n1 do in these assays?
KSHV LANA nucl: -0.13; BasE inh: 1.8

Results for CC(C)(C)NCC(O)COc1cccc2c1CCC(=O)N2 (stereo unspecified) ?
KSHV LANA nucl: 0.14; BasE inh: -3.1

Results for O=C(O)CCN1C(=O)c2cc(Cl)c(Cl)cc2C1=O ?
BasE inh: 2.7

Results for CN(C)CCOC(=O)c1ccco1 ?
KSHV LANA nucl: 0.13; BasE inh: 0.7

What do the screens show for `N#CC1CCCc2c1[nH]c1ccc(Br)cc21` (stereo unspecified)?
KSHV LANA nucl: -0.067; BasE inh: 0.9

What do the screens show for `O=C(Nc1c(C(=O)N(Cc2ccco2)CC2CCCO2)oc2ccccc12)C1CCCC1` (stereo unspecified)?
BasE inh: -2.6

Results for Cc1ccc(-c2n[nH]c(=O)c3ccccc23)cc1S(=O)(=O)N1CCN(CCO)CC1 ?
KSHV LANA nucl: 3; BasE inh: -1.1

Screening results from PubChem BioAssay.
